D2 PAM = Beta-Arrestin HTS for Positive Allosteric Modulators of the Human D2 Dopamine Receptor: Potentiators | potentiation, % (no concentration beside the values) | DiscoveRx D2 beta-arrestin cells, luminescence, 90 min; 100% = 57 uM dopamine signal | AID 624464, 2012 | 360,000 tested, 0.23% active; active = potentiation of 50% or more; inconclusive = 30% to 50%; inactive = 30% or less;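 further: compound concentration not given in the record; tested on top of an EC20 dose of dopamine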
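D2 cells co-treated with compound plus 50 nM dopamine (EC20) for 90 min at 37 deg C to detect potentiation. Beta-arrestin recruitment was read as enzyme-fragment luminescence after 1 h at ambient temperature. Full response was set by 57 uM dopamine.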
D2 ag = Beta-Arrestin HTS for Positive Allosteric Modulators of the Human D2 Dopamine Receptor: Agonists; AID 624465, 2012; 360,000 tested, 0.084% active; activation, % (test concentration not listed); DiscoveRx PathHunter D2 beta-arrestin, luminescence, 90 min; 100% = 57 uM dopamine signal; in the data active = activation above about 40%; inconclusive = about 15% to 40%; inactive = below about 15%; further: compound concentration not given in the record; the text of the record calls up to 30% inactive
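DiscoveRx PathHunter D2 beta-arrestin cells (2,100/well) attached overnight, then compound-stimulated 90 min at 37 C in HBSS/10 mM HEPES/0.1% Tween-20 buffer; beta-galactosidase complementation read by luminescence after 1 h at ambient temperature. Dopamine 57 uM final (EC100) as control.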
PINK1 modulator = A Quantitative High throughput Screen to Identify Chemical Modulators of PINK1 Expression; PINK1 immunofluorescence, high-content cytometry, 24 h; Potency, µM (titrated, usually from 76.6 µM), inactives show at the top dose activation (PINK1 increase), actives largely listed as activators; 410,000 tested, 0.2% active; active = well fitted activation curve with a large enough effect; inconclusive = small, poorly fitted or top-dose-only effect; inactive = flat fitted curve, though single readings scatter; cell line not stated here;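 further: potency means the concentration at half of the fitted maximal effect; % of control where 0% means no effect; nearly all actives have a fitted effect of over 65% in size; a mitochondrial uncoupler was the plate control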
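Cells are seeded, rested 12 hours, then given compound at five concentrations or DMSO for 24 hours. After fixation, blocking and antibody staining, PINK1 amount and mitochondrial localization are scored; CCCP serves as control.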
Six1-Eya2 blk = qHTS Assay for Inhibitors of the Six1/Eya2 Interaction. AlphaScreen GST-Six1/His-Eya2 binding, biochemical; stronger effect = lower value; control for the full effect not named in the record. activity change, % (test concentration not listed). 360,000 tested, 0.56% active. AID 651725, 2012; in the data active = activity change below about -65%; inconclusive = about -30% to -65%; inactive = above about -30%; further: on the % scale 0 is the no-effect control and ±100 the full control effect; compound concentration not given in the record
Target sequence (O00167 whole entry, looked up): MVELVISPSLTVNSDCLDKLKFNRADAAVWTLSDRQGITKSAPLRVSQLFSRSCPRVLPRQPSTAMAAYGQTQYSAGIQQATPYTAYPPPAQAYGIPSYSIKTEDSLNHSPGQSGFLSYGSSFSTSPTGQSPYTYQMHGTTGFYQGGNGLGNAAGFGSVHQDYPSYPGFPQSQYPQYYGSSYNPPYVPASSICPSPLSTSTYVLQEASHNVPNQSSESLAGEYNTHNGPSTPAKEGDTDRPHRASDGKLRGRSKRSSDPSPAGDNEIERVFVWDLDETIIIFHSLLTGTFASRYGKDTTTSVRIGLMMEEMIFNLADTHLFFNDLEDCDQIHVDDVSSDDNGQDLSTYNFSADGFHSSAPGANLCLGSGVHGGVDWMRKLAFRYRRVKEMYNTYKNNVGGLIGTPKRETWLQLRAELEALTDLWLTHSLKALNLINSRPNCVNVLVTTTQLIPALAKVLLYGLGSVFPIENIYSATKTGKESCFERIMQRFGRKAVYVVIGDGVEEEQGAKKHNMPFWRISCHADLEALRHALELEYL
Target sequence (Q15475 whole entry, looked up): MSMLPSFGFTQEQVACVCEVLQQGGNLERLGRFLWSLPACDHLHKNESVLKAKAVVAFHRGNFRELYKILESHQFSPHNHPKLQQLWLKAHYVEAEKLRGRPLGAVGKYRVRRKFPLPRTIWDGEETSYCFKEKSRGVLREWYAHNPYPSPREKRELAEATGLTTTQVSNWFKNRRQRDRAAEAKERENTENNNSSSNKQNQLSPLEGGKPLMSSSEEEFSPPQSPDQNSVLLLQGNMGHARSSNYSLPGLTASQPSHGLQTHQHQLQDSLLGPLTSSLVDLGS
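AlphaScreen luminescence read after one hour at 37 °C in darkness. Pin-transferred compounds met GST-Six1 and His-Eya2 protein (5X stock 250 nM/500 nM) plus glutathione donor and Ni-chelate acceptor beads (5X, 50 ug/mL).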
TRPML1 agonist = qHTS for Agonists of the Human Mucolipin Transient Receptor Potential 1 (TRPML1) | Mucolipin-1 (Homo sapiens), Q9GZU1 | TRPML1-expressing cells, Ca2+ dye fluorescence, FDSS; host cell line not named in the record; reference of the full effect not given here | activation, % (concentration not given with the values) | 410,000 tested, 0.12% active | AID 624414, 2012; in the data active = activation above about 50%; inconclusive = about 30% to 50%; inactive = below about 30%; further: 0% is about no effect; the text of the record puts the active cut at 80%
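Agonist activity was taken from a 110 s kinetic Ca2+ dye read on the FDSS after pinning compounds onto TRPML1-DL cells. The cells were seeded at 1,500/well with Tet inducer, incubated about 16 h, then dye-loaded at room temperature.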
TRPML1 blocker = qHTS for Inhibitors of the Human Mucolipin Transient Receptor Potential 1 (TRPML1) | Mucolipin-1 (Homo sapiens), Q9GZU1 | TRPML1-inducible cells, Ca2+ dye fluorescence, FDSS; stronger effect = lower value; inhibition of EC80 agonist-evoked calcium signal | activity change, negative = inhibition, % (no concentration beside the values) | 390,000 tested, 0.02% active; in the data active means activity change below about -50%; inconclusive means about -30% to -50%; inactive means above about -30%;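 further: stimulus is agonist 54-4 at its EC80 concentration; on the % scale 0 is the no-effect control and ±100 the full control effect; compound concentration not given in the record; the text of the record puts the active cut at -80%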
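Calcium fluorescence in TRPML1-DL cells induced overnight with Tet: a 110 s read after compound pin addition, then a 110 s antagonist read after challenge with 54-4 at 4 uM final (EC80).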
* hit, by the source's call; ? = inconclusive; . = not tested or not shown; [ ] = remark or other dose.

Values run as follows: TRPML1 agonist, TRPML1 blocker, PINK1 modulator, Six1-Eya2 blk, D2 PAM, D2 ag
- Cc1ccc(N2CCN(c3ncccc3[N+](=O)[O-])CC2)c(C)c1
  2.3, 14, 10%, ?, -6, -3.7
- Clc1c(OCCCn2ccnc2)ccc2ccccc12
  0.0, 45, 25%, -14, -16, 5.5
- COc1ccc(S(=O)(=O)N(C)C)cc1NC(=O)Cc1cccs1
  -0.5, -6, 0.7%, 0, -18, -2.5
- O=C(NC(Cc1ccccc1)C(=O)O)/C(=C/c1ccc([N+](=O)[O-])cc1)NC(=O)c1ccc(Br)o1 (configuration not stated)
  4.4, 7, 1.1%, -23, -2, -0.1
- COc1ccccc1C(=O)OCCc1ccccc1
  2.0, -1, -0.4%, 1, -6, 7.6
- O=C(c1ccc(Br)cc1)c1cc([N+](=O)[O-])ccc1N1CCCCC1
  -0.7, 24, 3.3%, -17, 5, -2.3
- CCc1ccc(C2c3c(n[nH]c3C)C(=O)N2c2ccc(C)cc2)cc1 (configuration not stated)
  0.5, 17, 1.5%, ., ., .
- O=C(CCCNC(=O)c1ccc(Cl)cc1)OCc1cccc(Br)c1
  4.1, -7, -1.3%, 4, 1, -1.3
- Cc1ccc(S(=O)(=O)NCCc2nnc3ccc(SCC(=O)Nc4c(C)cc(C)cc4C)nn23)cc1
  -0.3, 49, 1.8%, ., ., .
- OCCNc1cc(Cl)ncn1
  0.7, -25, 2.0%, 3, 3, -1.1
- CCCCC[C@H](C)N1C[C@H](COCc2ccccc2)Oc2cc(N3CC[C@@H](O)C3)ccc2S1(=O)=O
  -0.3, ., 7.9%, -14, ., .
- Cc1cc(C)c2c(-n3cccc3)c(C(=O)NCCc3ccccc3)sc2n1
  0.5, 35, 0.0%, ., ., .
- O=C(NCCN1CCN(C(=O)c2ccc([N+](=O)[O-])cc2)CC1)C(=O)Nc1ccc(F)cc1
  -0.5, 24, -1.0%, -1, 8, 0.7
- COc1ccccc1N1CCN(C(=O)c2cc3ccc4ccc(C)[nH]c4c3n2)CC1
  2.1, 9, -5.1%, ., ., .
- COc1cc2ccc3c(CCN(C)C)cc(OC)c(OC)c3c2cc1OC
  -0.7, -9, -0.1%, -11, -44, -3.3
- CCOC(=O)CCC(NC(=O)c1ccc(Nc2nc3ccccc3nc2C(=O)OCC)cc1)C(=O)OCC (configuration not stated)
  -0.3, 7, -0.1%, 4, 0, -0.2
- CCOc1ccc(NC(=O)NCCCN2CCN(c3ccc(OC)cc3)CC2)cc1
  -0.7, 8, 1.2%, ., ., .
- O=C(COC(=O)c1ccccc1O)NC(=O)c1ccc(OC(F)F)cc1
  3.5, 4, 0.5%, 0, -1, 5.7
- COc1cc(/C(C)=N/NC(=O)c2cccc(S(=O)(=O)N3CCCC3)c2)cc(OC)c1OC
  1.5, 62, -1.4%, -18, 1, -5.7
- CCC(C)(C)NC(=O)C1CCN(S(=O)(=O)c2c(C)noc2/C=C/c2ccc(C)cc2)CC1
  0.0, -8, 2.1%, ., ., .
- Cc1cc(C(=O)NNC(=O)/C=C/c2ccccc2Cl)c(C)o1
  0.9, 18, 0.0%, 3, 3, 6.1
- CSc1ccc(S(=O)(=O)NCc2ccc(Cl)cc2Cl)cc1
  4.2, 15, 3.2%[38.3 µM], 7, -1, -0.6
- CC(=O)NC1C(OCc2ccccc2)OC2COC(c3ccccc3)OC2C1OCC(=O)O (configuration not stated)
  -0.9, -16, 2.4%, 0, 0, -4.3
- COc1cc2c(=O)n(CC3CCCO3)c(=O)n(CC(=O)Nc3ccc(F)cc3F)c2cc1OC (configuration not stated)
  -0.4, -27, 1.8%, 6, -6, -2.5
- CCc1c(C)nc2nncn2c1Nc1cccc(C)c1
  2.0, -3, -0.8%, ., ., .
- CC(C)COc1ccc(-c2nn(-c3ccccc3)cc2/C=C2/SC(=S)N(CC(=O)O)C2=O)cc1
  -0.3, 19, 0.9%, -7, -5, -6.2
- CC(=O)c1c(C)[nH]c(C(=O)OCc2nnc(-c3ccccc3)o2)c1C
  2.7, 13, -0.7%, 3, 2, 2.9
- Cc1cccc(NC(=O)C(NS(=O)(=O)c2cccc3nsnc23)c2ccccc2)c1C (configuration not stated)
  0.7, 3, 1.1%, ., ., .
- COc1cc(N2C(=O)CSC23C(=O)Nc2ccccc23)cc(OC)c1OC (configuration not stated)
  1.4, -4, 0.5%, -3, 0, -1.4
- O=C(CSc1nc2ccccc2o1)Nc1nc2ccc(Br)cc2s1
  -0.7, -15, 3.9%, 2, ?, -2.5

Part of the list above, limited to D2 ag, TRPML1 blocker and Six1-Eya2 blk.
Molecule	D2 ag	TRPML1 blocker	Six1-Eya2 blk
O=C(CCCNC(=O)c1ccc(Cl)cc1)OCc1cccc(Br)c1	-1.3	-7	4
Cc1ccc(S(=O)(=O)NCCc2nnc3ccc(SCC(=O)Nc4c(C)cc(C)cc4C)nn23)cc1	.	49	.
O=C(COC(=O)c1ccccc1O)NC(=O)c1ccc(OC(F)F)cc1	5.7	4	0
Cc1cccc(NC(=O)C(NS(=O)(=O)c2cccc3nsnc23)c2ccccc2)c1C (configuration not stated)	.	3	.

(next part)
Values run as follows: TRPML1 agonist, TRPML1 blocker, PINK1 modulator, Six1-Eya2 blk, D2 PAM, D2 ag
- NN(Cc1ccccc1)C(=S)Nc1ccc(Cl)c(Cl)c1
  2.7, 10, 8.7%, 8, 12, 12
- COc1cc(OC)cc(-c2nnc(SCc3cccnc3)o2)c1
  0.4, -9, ., 2, -1, -1.0
- Cc1cccc(C)c1NC(=O)CNCC(=O)N(C)C
  0.8, -8, 2.4%, 32, 0, -16
- CCOC(=O)C1=CN(C)C=C(C(=O)OCC)C1c1ccsc1
  1.2, -3, ., 25, -3, -1.0
- O=c1cc(CO)occ1OCc1c(F)cccc1Cl
  -0.3, 40, 0.3%, -14, 8, 5.1
- NS(=O)(=O)c1cc2c(cc1Cl)NC(C(Cl)Cl)NS2(=O)=O (configuration not stated)
  0.5, 2, 3.4%, -3, -2, 2.1
- C[C@@]12CCC3[C@@](CCC4[C@@]3(C)CCC[C@@]4(C)C(=O)N3CCOCC3)(CC1=O)C2 (some centres not stated)
  -0.1, -16, -0.9%, 6, -12, -2.5
- COCCNc1nnc(SCC(=O)NNC(=O)c2ccc([N+](=O)[O-])cc2)s1
  -0.1, -2, 3.0%, -4, -2, 3.4
- Cc1ccccc1CNC(=O)CCSCc1cnn(-c2ccccc2)c1-n1cccc1
  4.5, -15, -0.7%, ., ., .
- CCN1C(=O)C2C(C1=O)N1C(c3cccs3)C3C(=O)N(CC)C(=O)C3N1C2c1cccs1 (configuration not stated)
  -0.3, 18, -1.3%, 5, -8, 1.9
- COc1ccc(N2CCc3c(C)nc4c(OC)cc(OC)cc4c32)c(OC)c1
  2.3, 23, ?, -3, -13, -3.6
- Cc1cccc(C2c3[nH]c4ccccc4c3CCN2C(=O)c2cc(CC(C)C)nc(C)n2)n1 (configuration not stated)
  0.4, 8, -0.8%, -6, -3, 3.5
- Cc1ccc(-c2nn(CC(=O)NC(C)c3ccccc3)c(=O)c3ccccc23)cc1 (configuration not stated)
  4.4, 16, 9.5%, -1, -19, -3.8
- O=C(CC1CC2CCC1C2)N1CCN(S(=O)(=O)c2ccc(F)cc2)CC1 (configuration not stated)
  -0.5, 10, 0.1%, -1, -11, -0.4
- CCN(CC(=O)Nc1ccccc1OC)C(=O)CCc1ccccc1
  -0.5, -7, 0.7%, 9, -4, 4.4
- CC(C)CC1(C(=O)O)NC(c2ccccc2O)C2C(=O)N(C(C)C)C(=O)C21 (configuration not stated)
  0.4, 20, 3.8%, 7, -9, -2.0
- CN1CCCN(S(=O)(=O)c2cccc(Cl)c2Cl)CC1
  0.8, 8, -1.0%, 3, -6, -1.7
- CCOCCCN1CC(=O)N2[C@@H](Cc3c([nH]c4ccccc34)C2(C)C)C1=O
  -0.5, -13, 1.9%, -11, -7, -1.5
- COc1ccc(-c2cc(-c3ccccc3)nc(SCC(=O)Nc3ccccc3F)c2C#N)cc1
  -0.6, -2, 1.2%, ., ., .
- COc1ccc2c(c1)C(C)=CC(C)(C)N2C(=O)C(C)N1C(=O)c2ccccc2C1=O (configuration not stated)
  -0.5, -12, 1.5%[38.3 µM], -1, 5, 0.8
- CC(C)Oc1cccc(C(=O)N/N=C/c2ccoc2)c1
  -0.6, -10, 0.8%, 0, -8, 0.1
- COc1ccc(CCNC(=O)c2ccc3c(c2)N=C(C)c2cc(C)ccc2S3)cc1OC
  -0.5, -11, 0.8%, ., ., .
- CS(=O)(=O)NN1C(=O)c2ccccc2NC1c1ccccc1F (configuration not stated)
  ., ., 0.0%, 0, -6, -4.3
- O=C(CCS(=O)(=O)c1cc(Br)cc2c1N(C(=O)C1CC1)CC2)Nc1ccc(F)cc1
  -0.1, -14, 5.3%, ., ., .
- Cc1nc2nc(Cc3ccccc3)nn2c(C)c1Cl
  -0.9, 5, 25%[38.3 µM], 0, -8, -2.7
- COc1ccc(N=C(C)C2C(=O)c3ccccc3C2=O)cc1
  -0.6, ., 1.1%, -17, 4, -1.9
- O=C(COC(=O)c1ccccn1)NCCc1ccc(Cl)cc1
  -0.5, -1, -2.6%, -4, -2, -1.5
- Cc1c(C(=O)N2CCCCC2)c(S(=O)(=O)N2CCc3ccccc32)c(C)n1C
  -0.9, -13, -0.2%, 0, -4, 1.4
- O=C(COc1ccccc1[N+](=O)[O-])OCCCOC(=O)COc1ccccc1[N+](=O)[O-]
  -0.1, 8, -0.4%, 16, -6, -1.1
- Cn1cnc2cc(OC(=O)c3ccccc3)ccc21
  -0.3, 3, ., -1, -2, -1.0

(list continues)
Values run as follows: TRPML1 agonist, TRPML1 blocker, PINK1 modulator, Six1-Eya2 blk, D2 PAM, D2 ag
- OCC1(Cc2cccc(F)c2)CCN(Cc2ccc3cccc(F)c3n2)CC1
  -0.6, 5, -0.7%, 4, -12, -3.2
- O=C(CSc1ccc(-c2ccco2)nn1)NCCc1ccccc1
  -0.8, -3, -0.1%, -1, -6, -4.0
- COCCCn1c(=N)c(C(=O)NC2CCCC2)cc2c(=O)n3cc(C)ccc3nc21
  -0.6, -6, 0.3%, ., ., .
- Cc1cccc(OCCCC(=O)Nc2ccc(S(N)(=O)=O)cc2)c1
  -0.7, 6, 1.4%, 3, 7, 0.4
- Cc1cc(OCCN2CCCC2)ccc1[N+](=O)[O-]
  -1.0, 9, 0.9%, 1, -18, -7.1
- COc1ccc2c(c1)c(CC(=O)OCC(=O)N(C)C)c(C)n2C(=O)c1ccc(Cl)cc1
  3.4, 53, 5.6%, -2, 1, 3.7
- COc1cc(NC(=S)NCCc2ccccc2)c(OC)cc1NC(=O)C(C)C
  0.3, 5, -0.1%, -1, -3, 2.5
